Bioassay records: PubChem, several laboratories
Hsc70: Hsc70 inhibitors, probe displacement, primary screen, biochemical, fluorescence polarization (AID 568). displacement, % at 20 µM; hits with a dose series show IC50 in µM. 83,000 tested, under 10 active. Hsc70 fluorescence polarization, probe displacement; higher % means a stronger effect; strong numbers were not always called active;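 active means displacement above 50% without optical interference and an IC50 on retest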;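 further: ATPase domain with a fluorescein-tagged ATP probe; 0% = vehicle and 100% = excess ADP; read after one hour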
MT1-MMP reporter: MT1-MMP gene expression reporter suppression – cell-based, luciferase reporter, luminescence (AID 618); hit rate 0.62% among 87,000; calls from a first round at 10 µM; hits with a dose series show EC50 in µM; MT1-MMP promoter luciferase reporter cells, luminescence;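 active means over half of the reporter light lost at 10 µM or EC50 under 50 µM; inactive means the rest and hits that failed the dose series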;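 further: actives suppress MT1-MMP promoter-driven transcription so potencies describe inhibitors; HT1080 fibrosarcoma cells; overnight exposure; toxic or luciferase-blocking compounds were not removed from the actives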
WNV NS2B-NS3 inh: WNV NS2B-NS3 proteinase inhibition; AID 577; WNV NS2B-NS3 protease, fluorogenic substrate Ex360/Em465; hits give low values; hit rate 0.18% among 65,000; z-score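 (tested at a level between 10 and 100 µM)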; P06935;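 active means z-score at -3 or under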;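 further: score is relative to mean and spread of the compound wells of a plate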
Target sequence (P06935 1371-1501 limits assumed): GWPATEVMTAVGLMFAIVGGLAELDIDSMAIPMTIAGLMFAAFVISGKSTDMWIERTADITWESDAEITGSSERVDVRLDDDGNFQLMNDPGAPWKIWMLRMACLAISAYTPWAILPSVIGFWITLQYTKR
Target sequence (P06935 1502-1679 limits assumed): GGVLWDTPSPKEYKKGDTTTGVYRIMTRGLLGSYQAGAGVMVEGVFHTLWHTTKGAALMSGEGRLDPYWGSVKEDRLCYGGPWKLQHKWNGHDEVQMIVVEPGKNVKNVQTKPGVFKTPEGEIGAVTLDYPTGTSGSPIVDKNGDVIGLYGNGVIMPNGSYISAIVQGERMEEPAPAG
* = called active by the depositor; i = inactive; x = no result given; & = joins results of further samples. Not all compounds are listed (hit frequency here may not be typical).

[1] CCC(=NCC1CCCO1)c1c(O)n(-c2ccccc2)c(=O)[nH]c1=O (stereo not given)
[2] CC(=O)OC1(c2ccccc2)CCN(C)C2CCCCC21 (stereo not given)
[3] Cc1cccc(N2CCc3c2nc2ccccc2c3N)c1
[4] CC(C)Cn1cc(C(=O)N2CCC3(CC2)OCCO3)c2c3ccccc3n(C)c2c1=O
[5] CCOC(=O)C1SC2(C(F)(F)C(F)F)CC1(O)c1c(c(OC)c3occc3c1OC)O2 (stereo not given)
[6] COC(=O)c1cc(COc2cc(C)cc3oc(=O)c4c(c23)CCC4)c(C)o1
[7] CNP1(NC)=Nc2nn(-c3ccccc3)c(N)c2C(c2ccccc2)=N1
[8] O=C(Cc1ccccc1)Oc1ccc(N2C(=O)C3CCCCC3C2=O)cc1 (stereo not given)
Screen / compound no.	1	2	3	4	5	6	7	8
Hsc70	5.1%	-4.6%	-6.7%&2.2%	-0.4%	-5.7%	-2.7%	6.0%	-2.4%
MT1-MMP reporter	i	i	i	i	i	i	i	i
WNV NS2B-NS3 inh	0.32	-1	0.5&1.4	0.03	-1	0.12	0.18	x

[9] O=C(C1CC(=O)N(C2CCCC2)C1)N1CCC2(CC1)OCCO2 (stereo not given)
[10] Cc1nc2cc(C(F)(F)F)ccc2n1C1CCN(Cc2nnnn2CCc2ccccc2)CC1
[11] CCN1CCN(Cc2nnnn2C(C)(C)C)CC1
[12] O=C(Nc1ccccc1OC(=O)N1CCOCC1)N1CCOCC1
[13] COc1ccc2[nH]cc(CCN(C)C)c2c1
[14] CCN1CCN(Cc2ccccc2C)CC1
[15] CCCCn1c(O)c(C(C)=NCc2ccc(F)cc2)c(=O)[nH]c1=O
[16] OCC12CO[C@@H]3c4ccccc4[C@H](OC1)N32 (stereo not given in full)
Screen / compound no.	9	10	11	12	13	14	15	16
Hsc70	2.6%	-1.5%	0.7%	2.8%	-1.9%	0.5%	-1.2%	1.6%
MT1-MMP reporter	i	i	i	i	i	i	i	i
WNV NS2B-NS3 inh	x	x	1.1	1.2	0.26	0.87	-0.38	x

[17] O=C(CN1C(=O)CN=C(c2ccccc2Cl)c2cc(Cl)ccc21)NCc1ccco1
[18] C[N+]12CN3CN(CN(C3)C1)C2
[19] CC(C)OC(=O)C1C(=O)NC2(C)CC1c1ccccc1O2 (stereo not given)
[20] O=c1c2ccccc2nc(-c2ccco2)n1-c1ccncc1
[21] Cc1ccccc1-n1c(O)c(C=Nc2ccc(N(C)C)cc2)c(=O)[nH]c1=O
[22] CCCCn1c(O)c(C(C)=NCCc2ccccc2)c(=O)[nH]c1=O
[23] CNCCc1nc(N)n[nH]1
[24] O=c1[nH]c(=S)n(CCC2=CCCCC2)c(O)c1C=NCCCn1ccnc1
Screen / compound no.	17	18	19	20	21	22	23	24
Hsc70	-7.1%	-0.1%	-1.9%	3.3%	-8.0%	-3.3%	1.0%	-9.9%
MT1-MMP reporter	i	i	i	i	i	i	i	i
WNV NS2B-NS3 inh	-1.2	1.7	-0.27	0.04	0.24	-0.39	0.26	x

Compound profiles, as listed above. Screens in order: Hsc70	MT1-MMP reporter	WNV NS2B-NS3 inh
`Cc1ccccc1-n1c(O)c(C=Nc2ccc(N(C)C)cc2)c(=O)[nH]c1=O` across the screens: -8.0%	i	0.24
`O=c1[nH]c(=S)n(CCC2=CCCCC2)c(O)c1C=NCCCn1ccnc1` across the screens: -9.9%	i	x
`CCCCn1c(O)c(C(C)=NCCc2ccccc2)c(=O)[nH]c1=O` across the screens: -3.3%	i	-0.39
`CC(C)OC(=O)C1C(=O)NC2(C)CC1c1ccccc1O2` (stereo not given) across the screens: -1.9%	i	-0.27
`O=C(CN1C(=O)CN=C(c2ccccc2Cl)c2cc(Cl)ccc21)NCc1ccco1` across the screens: -7.1%	i	-1.2

More structures
[25] CN1C(=O)c2ccccc2Sc2ccc(C(=O)N3CCC4(CC3)OCCO4)cc21
[26] OC(c1ccccc1)(c1ccccc1)C1CCNCC1
[27] O=C(c1cc2c(s1)-c1ccccc1OC2)N1CCC2(CC1)OCCO2
[28] CCS(=O)(=O)N1CCC(C(=O)N2CCC3(CC2)OCCO3)CC1
[29] O=C(CNS(=O)(=O)c1cccs1)N1CCC2(CC1)OCCO2
[30] COc1ccc(CC[n+]2cc(/N=C(\C)[O-])on2)cc1OC
[31] CC/C(=C\C=C\[C@@H]1C=C[C@@H]2CCC[C@H]2[C@@H]1C(=O)c1ccc[nH]1)[C@@H]1O[C@@H]([C@@H](C)C(=O)O)CC[C@@H]1C
[32] O=C(NCc1ccccn1)c1ccccc1Cl
Screen / compound no.	25	26	27	28	29	30	31	32
Hsc70	-8.0%	-1.7%	-11%	-6.4%	-1.8%	-5.6%	4.0%	4.0%
MT1-MMP reporter	i	i	i	i	i	i	i	i
WNV NS2B-NS3 inh	-0.34	x	1.5	-0.99	0.47	-0.66	x	-0.45

Some of the entries above, set out differently:
[25] CN1C(=O)c2ccccc2Sc2ccc(C(=O)N3CCC4(CC3)OCCO4)cc21
  Hsc70: -8.0%; MT1-MMP reporter: i; WNV NS2B-NS3 inh: -0.34

[26] OC(c1ccccc1)(c1ccccc1)C1CCNCC1
  Hsc70: -1.7%; MT1-MMP reporter: i; WNV NS2B-NS3 inh: x

[27] O=C(c1cc2c(s1)-c1ccccc1OC2)N1CCC2(CC1)OCCO2
  Hsc70: -11%; MT1-MMP reporter: i; WNV NS2B-NS3 inh: 1.5

[28] CCS(=O)(=O)N1CCC(C(=O)N2CCC3(CC2)OCCO3)CC1
  Hsc70: -6.4%; MT1-MMP reporter: i; WNV NS2B-NS3 inh: -0.99

Following part:
[33] N#CC1=C(N)Oc2c(c(=O)oc3ccccc23)C1c1cccnc1 (stereo not given)
[34] C=CCn1c(O)c(C(CC)=Nc2ccc(N(CC)CC)cc2)c(=O)[nH]c1=O
[35] Cc1cc(C)nc(-n2c(C)nc3cc(Cl)ccc3c2=O)c1
[36] C=CCn1c(O)c(C(C)=NCc2ccco2)c(=O)[nH]c1=O
[37] O=c1[nH]c(=O)n(CCc2ccccc2)c(O)c1C=NCCN1CCNCC1
[38] CC(C)[C@@]1(NC(=O)[C@@H]2C=C3c4cccc5[nH]cc(c45)C[C@H]3N(C)C2)O[C@@]2(O)[C@@H]3CCCN3C(=O)[C@H](Cc3ccccc3)N2C1=O
[39] CN1CCc2nc3sc(C#N)c(N)c3c(-c3cccs3)c2C1
[40] C=CCn1c(O)c(C(C)=NCCC2=CCCCC2)c(=O)[nH]c1=O
Screen / compound no.	33	34	35	36	37	38	39	40
Hsc70	-1.8%	0.8%	0.8%	-2.3%	-11%	39%	4.0%	1.8%
MT1-MMP reporter	i	i	i	i	i	i	i	i
WNV NS2B-NS3 inh	0.33	-1	x	x	-0.46	0.16	-1.3	x

Entries by screen from above.
Compounds 16 to 22 in MT1-MMP reporter, in turn: i, i, i, i, i, i, i

The list continues.
[41] CCCc1nc2ccccc2c(=O)n1-c1ccc(OC)cc1
[42] COc1ccc(C2SCC(=O)Nc3c2c(C)nn3-c2ccccc2)cc1OC (stereo not given)
[43] CC(=O)C1C(=O)NC23CCCCC2C1c1ccccc1O3 (stereo not given)
[44] CCSc1nnc(C(N)Cc2ccccc2)o1 (stereo not given)
[45] O=C1CCCN1C(=O)c1cncc(Br)c1
Screen / compound no.	41	42	43	44	45
Hsc70	-2.4%	4.4%	4.9%	-2.1%	-3.2%
MT1-MMP reporter	i	i	i	i	i
WNV NS2B-NS3 inh	x	x	-0.69	x	x
